Compound activity from PubChem.
HSV replic up: enhancers of HSV replication in host cells, fold increase, host cell viability; HSV replication augmentation in cells; maximum fold increase; 0.005% of 220,000 active;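 active = peak rise of 1.5-fold or more in the series; tested in PC3 cells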;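 also: first round at 10 µM; read as green reporter fluorescence; hits show the peak of a series up to 25 µM; 1 = signal of infected wells without compound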
RGS16-Gao: modulators of RGS16 binding to Galphao, primary screen, biochemical, human proteins, multiplexed bead flow cytometry; Regulator of G-protein signaling 16 (Homo sapiens) + Guanine nucleotide-binding protein …; bead-based flow cytometry RGS16-Galphao binding, fluorescence; actives lie on both sides; binding response (% of control), % at 10 µM; 0.38% of 220,000 active; AID 1441, 2008;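 active = below 25% or above 175%, edge rows of some plates excepted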;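 also: Galphao activated by GDP with aluminum fluoride before binding; 100% = wells without compound and 0% = beads without RGS; some results beyond the cut were filed as inactive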
Target sequence (O15492 whole entry, looked up): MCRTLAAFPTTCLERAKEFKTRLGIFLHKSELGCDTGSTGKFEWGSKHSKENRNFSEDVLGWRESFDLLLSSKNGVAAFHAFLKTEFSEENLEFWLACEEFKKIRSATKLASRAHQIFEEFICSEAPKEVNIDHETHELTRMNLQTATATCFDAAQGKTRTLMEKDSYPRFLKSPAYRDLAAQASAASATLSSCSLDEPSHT
Target sequence (P09471 whole entry, looked up): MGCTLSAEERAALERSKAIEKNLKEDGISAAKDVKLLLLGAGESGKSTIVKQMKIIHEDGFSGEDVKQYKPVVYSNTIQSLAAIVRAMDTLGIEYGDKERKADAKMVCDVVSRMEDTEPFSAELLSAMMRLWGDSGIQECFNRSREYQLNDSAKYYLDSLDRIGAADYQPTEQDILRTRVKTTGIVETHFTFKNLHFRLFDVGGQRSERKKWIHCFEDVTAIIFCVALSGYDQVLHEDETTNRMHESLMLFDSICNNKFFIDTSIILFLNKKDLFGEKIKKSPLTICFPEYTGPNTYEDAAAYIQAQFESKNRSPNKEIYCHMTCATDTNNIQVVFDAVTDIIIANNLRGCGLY
PKD1 inh: inhibitors of human PKD1 kinase, biochemical, fluorescence polarization; Serine/threonine-protein kinase D1 (Homo sapiens), Q15139; PKD1 kinase fluorescence polarization assay; inhibition, %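 (about 10 µM by stock and volumes)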; 0.056% of 200,000 active; AID 797, 2007;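 active = inhibition of 50% or more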;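 also: controls were vehicle for no effect and a reference inhibitor for full effect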
GALR2 ag: GALR2 receptor agonists, primary screen, cell-based; AID 803, 2007; 0.48% of 140,000 active; activation, %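 (tested at 5 µM)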; GALR2-expressing cells, agonist activation read-out; Galanin receptor type 2 (Homo sapiens), O43603;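 active = above mean plus 3 SD of all compounds, about 5% in these data, not always enough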;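 also: 0% = vehicle buffer wells and 100% = reference agonist at full effect; tested in CHO reporter cells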
Target sequence (O43603 whole entry, looked up): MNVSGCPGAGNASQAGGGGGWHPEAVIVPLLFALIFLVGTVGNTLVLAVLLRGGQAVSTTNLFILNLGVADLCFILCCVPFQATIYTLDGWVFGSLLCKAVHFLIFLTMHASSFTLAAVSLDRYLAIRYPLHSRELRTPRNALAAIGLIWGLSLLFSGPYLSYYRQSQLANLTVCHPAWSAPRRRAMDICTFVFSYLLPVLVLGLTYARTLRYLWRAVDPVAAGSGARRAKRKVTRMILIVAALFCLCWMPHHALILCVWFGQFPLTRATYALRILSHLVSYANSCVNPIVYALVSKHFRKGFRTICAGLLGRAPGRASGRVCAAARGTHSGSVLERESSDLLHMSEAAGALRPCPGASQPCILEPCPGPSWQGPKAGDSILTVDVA
Insulin prom inh: inhibitors of insulin promoter-driven GFP, primary screen, imaging, TRM-6 cells (human fetal islet line), eGFP reporter, cell count | reporter expression induced with tamoxifen | inhibition, % at 2 µM | 0.9% of 130,000 active | AID 1273, 2008;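 active = inhibition above the mean plus 3 SD, with well images judged a real hit on visual review, cut at about 60% in these data, passing the limit was not always enough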
Insulin prom inh cell count: second read-out of Insulin prom inh, no call of its own (marks repeat the call); normalized cell count, %; measured here: cell count, toxicity; reference of the scale not given here;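 cells exposed to compound for 48 h; stained nuclei by imaging scaled within each plate; lower means fewer cells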
HSV replic up primary fold: also measured in HSV replic up; calls as there; fold increase; compound at 10 µM; measured here: primary screen fold increase 10 uM; tested in PC3 cells;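 GFP signal in the first replicate; 1 = infected wells without compound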
* = called active by the depositor; i = inactive; / = not tested or not shown; [ ] = another dose, or the depositor's remark.

Structure	PKD1 inh	RGS16-Gao	GALR2 ag	Insulin prom inh cell count	HSV replic up	Insulin prom inh	HSV replic up primary fold
CCCCCC1CC(CC(C)C(=O)Nc2nncs2)C(=O)O1 (stereo not given)	-2	101	-2.9	153	/	67	/
CCCCN(CCCC)c1cn[nH]c(=O)c1Cl	-9	9.8*	-2.4	88	i	33	1
O=C(CC1CC2CCC1C2)NCc1cccs1 (stereo not given)	7	109	-0.2	/	i	/	0.82
CCOC(=O)c1c(C)[nH]c(C(=O)O)c1C	-5	105	-3.0	114	i	26	0.91
O=C(CSc1nnc(-c2ccco2)c(-c2ccco2)n1)Nc1ccccc1	-7	88	-0.6	65	i	9	1.1
COc1ccccc1Oc1coc2c(CN3CCOCC3)c(O)ccc2c1=O	/	102	/	/	i	/	0.96
Cc1ccc(Cn2nnc3c(=O)[nH]c(C4CCN(S(=O)(=O)c5ccc(F)cc5)CC4)nc32)cc1	2	102	0.8	114	/	-12	/
O=C(Nc1ccc(S(=O)(=O)N2CCN(c3ccccc3)CC2)cc1)c1cccs1	9	105	-1.0	31	i	43	0.66
CCOC(=O)c1cc(NC(=O)Nc2nc3ccccc3s2)c(C)nc1C	-15	142	-0.9	53	i	0	1.1
O=C(c1c(Cl)nc2sccn12)N1CCN(c2cccc(Cl)c2)CC1	15	103	-1.7	21	i	-60	0.73
CCOc1ccc(-c2c(C(=O)N/N=C/c3ccc(O)cc3)nnn2-c2nonc2N)cc1	/	108	/	/	i	/	0.9
CC(=O)NC(C)C(c1cccs1)N1CCN(c2ccccc2)CC1 (stereo not given)	16	99	-1.1	/	i	/	0.95
CCC(C)NC(=O)c1csc2c1CCCCC2 (stereo not given)	3	98	-2.1	146	i	28	0.96
COC(=O)[C@@H]1C[C@@H]2CC[C@@H](O)C[C@@H]2N1Cc1ccc(Cl)cc1	/	97	/	/	i	/	0.91
COc1ccc([N+](=O)[O-])cc1NC(=O)CC1SC(=Nc2cccc(C)c2C)N(/N=C(\C)c2ccc(C)cc2)C1=O (stereo not given)	4	103	/	110	i	10	0.95
O=C1CC2C(CC(OC(=O)c3ccc(-c4ccccc4)cc3)C2CO)O1 (stereo not given)	-1	104	-0.8	176	i	5	0.89
COC(=O)c1cc(-c2ccccc2)c2c(=O)n(C)c(=O)n(C)c2n1	-3	103	/	/	i	/	0.95
CSc1nnc2c3c4c(sc3c(=O)n(-c3ccccc3)n12)CC(C)(C)OC4	1	102	0.8	/	i	/	0.66
O=C(CN1CCN(Cc2ccccc2Cl)CC1)N/N=C/c1ccco1	/	96	/	/	i	/	0.99
CCN(CC)CCN1C(=O)C(=O)/C(=C(/O)c2c(C)[nH]c(C(=O)OC)c2C)C1c1ccccc1OC (stereo not given)	-7	266	-0.7	28	i	-11	0.93
Cc1ccccc1C(=O)NCCSc1ccccc1	8	100	-0.4	122	i	-65	1.1
O=C(NCc1ccccc1)c1cc(S(=O)(=O)N2CCC3(CC2)OCCO3)ccc1F	4	95	-3.2	/	i	/	0.93
C=CCN1C(=O)/C(=C2/Sc3ccc(OC)cc3N2C)SC1=Nc1cccc(O)c1	-2	114	/	119	i	-162	1
O=C1c2cccnc2C(O)N1Cc1ccco1 (stereo not given)	0	104	-4.0	/	/	/	/
COc1ccccc1NC(=O)COc1ccc(C(=O)OCC(=O)N(C(C)C)C(C)C)cc1OC	-2	102	0.1	99	i	-36	1.1
Cc1ccc(S(=O)(=O)N(C)C)cc1NC(=O)CSc1nc2ccccc2[nH]1	-9	105	0.1	93	i	-36	0.86
N#CC1=C(c2ccc(-c3ccccc3)cc2)COC1=O	1	99	/	82	i	-13	0.96
CC(c1nnc(SCC(=O)Nc2ccc3[nH]c(=O)[nH]c3c2)n1Cc1ccccc1)N(C)C (stereo not given)	-2	100	-0.7	/	i	/	1.1
COC(=O)C(CCSC)NC(=O)c1cc2c(n(-c3ccccc3)c1=O)CCCC2=O (stereo not given)	-9	100	/	76	i	-17	1
O=C(Nc1ccccc1)Nc1ccc(S(=O)(=O)N2CCCCC2)cc1	-2	103	-3.2	100	i	-14	0.91
Cc1ccc(C(=O)Nc2sc3c(c2C(=O)O)CCCCC3)o1	-1	108	0.8	59	i	-15	0.94
CCOC(=O)C1=C(C)N=C2SCCC(=O)N2C1c1cc(Br)ccc1OC (stereo not given)	-15	/	-1.1	119	i	0	1
C/C(CC(=O)Nc1ccc(N(C)C)cc1)=N\NC(=O)c1ccccn1	-3	100	-0.7	126	i	25	0.89
C=C1CCN([C@H](C(=O)NCc2ccc(Cl)cc2)C(C)C)S(=O)(=O)c2ccccc21	/	101	/	/	i	/	1
O=C(N/N=C/c1ccc(Cl)cc1)c1cc(-c2cccnc2)nc2ccccc12	0	101	/	54	i	36	0.74
CN(Cc1ccccc1)C(=S)Nc1cccnc1	0	102	/	/	i	/	1
O=C(/C=C/c1cccc([N+](=O)[O-])c1)c1ccc2c(c1)OCCO2	-11	118	0.6	85	i	10	0.95
O=C1C2C3C=CC(C2C(=O)N1c1nccs1)C1C(=O)N(c2nccs2)C(=O)C31 (stereo not given)	1	99	/	/	i	/	0.99
CC(C)C[C@@H]1NC(=O)[C@H](Cc2ccc(O)cc2)NC(=O)[C@H](CCC(N)=O)NC(=O)c2cc([N+](=O)[O-])cc(I)c2NCC[C@@H](C(N)=O)NC1=O	-1	47	-2.3	72	/	33	/
N#Cc1cn(Cc2cccc(Cl)c2)c2ccccc12	6	123	0.5	104	i	57	0.92
NS(=O)(=O)c1ccc(NC(=S)Nc2ccc(Br)c(Cl)c2)cc1	8	96	/	91	i	31	1.1
NC(N)=Nc1nc(-c2ccccc2)c2ccccc2n1	-1	108	/	123	i	27	0.68
CCCS(=O)(=O)c1c(S(=O)(=O)CCC)c2c(C)cccn2c1C(=O)N/N=C/c1cc(O)cc(O)c1	3	101	/	/	/	/	/
O=C(Nc1ccc2ncccc2c1)c1cc(Cl)ccc1Cl	-5	101	/	50	i	33	0.91
C=CCn1c(SCC(=O)Nc2sccc2C(N)=O)nc2ccccc2c1=O	0	100	0.6	88	i	18	0.82
CCCCNC(=O)Nc1ccccc1Br	6	108	-1.3	/	i	/	1
Cc1ccc2nc(N/N=C/c3ccco3)cc(C)c2c1	1	141	/	/	i	/	0.91
O=C(Nc1ccc(S(=O)(=O)N2CCCCCC2)cc1)C1CCCO1 (stereo not given)	-9	103	-0.9	132	i	38	0.77
O=[N+]([O-])c1ccc(Cl)c2c1C1C=CCC1C(c1ccccn1)N2 (stereo not given)	-11	89	/	/	i	/	0.9
Nc1nnc(SCC(=O)Nc2ccc3c(c2)OCCO3)s1	1	102	-1.8	/	i	/	0.89
Cc1ccc(N=CC2=C(O)CC(c3ccc(Cl)cc3)CC2=O)cc1 (stereo not given)	-2	98	-0.6	121	/	-33	/
Cn1c(SCC(=O)N/N=C/c2ccccn2)nnc1-c1ccccc1	/	93	/	/	i	/	0.93
O=C(CN1CCC(O)(c2ccccc2F)CC1)NCCc1c[nH]c2ccccc12	-3	97	-0.6	83	i	0	0.93
O=C1NC(c2ccc(Cl)cc2)=COc2ccccc21	-5	98	/	/	i	/	0.87
CCC(C)(C(=O)NC1CCCC1)N(C(=O)CNC(=O)c1ccccc1)c1c(C)n(C)n(-c2ccccc2)c1=O (stereo not given)	-5	102	/	77	i	-27	0.98
CC(=O)N1CCN(c2ccc(NC(=O)c3ccc4c(c3)OCCO4)cc2)CC1	-2	107	-0.8	/	i	/	0.85
Cc1cc(C)cc(NC(=O)N(C)Cc2ccccc2)c1	/	104	/	/	i	/	0.97
O=C1c2ccccc2C(=O)N1CCc1nc(-c2ccncc2)no1	-2	104	-2.4	106	i	8	0.8
O=C1CCCc2ccccc2N1Cc1ccccc1Cl	-4	96	-2.1	77	i	3	0.87
COc1ccc2c(c1OC)C(=O)OC2Nc1ncc(Br)cc1Br (stereo not given)	9	188*[activator]	-1.4	64	i	29	0.9

Next records:
Structure	PKD1 inh	RGS16-Gao	GALR2 ag	Insulin prom inh cell count	HSV replic up	Insulin prom inh	HSV replic up primary fold
O=C(O)c1ccc(NCc2nc3ccccc3n2Cc2ccccc2F)cc1	/	108	/	/	i	/	1.1
COc1cccc(NS(=O)(=O)Cc2ccccc2)c1	-9	103	-1.6	161	i	-30	0.97
COc1ccccc1NC(=O)CSc1nnc(CC(=O)Nc2cccc(C(F)(F)F)c2)n1C	-2	103	-1.2	87	i	4	0.85
C[C@H](NC(=O)c1[nH]cnc1C(=O)Nc1ccc(CNC(=O)OC(C)(C)C)cc1)C(=O)OCc1ccccc1	/	106	/	/	i	/	0.69
CC(=O)c1cccc(NC(=O)C2CC(=O)N(CCc3ccccc3)C2)c1 (stereo not given)	7	112	/	75	i	42	0.89
C1CCN(Cc2nnnn2C2CCCC2)CC1	4	103	-1.5	88	i	-13	0.92
CCOCCSc1nc2c(c(-c3cccs3)c1C#N)CC/C2=C/c1cccs1	-1	227	5.1*	43	i	-19	1.1
COc1ccccc1N=C1SC(C(=O)Nc2ccc(F)cc2)CC(=O)N1C (stereo not given)	-2	102	-1.8	118	i	-100	0.82
O=c1c(C(c2ccc(Cl)cc2)c2c(O)nc3n(c2=O)CCCS3)c(O)nc2n1CCCS2	/	80	/	/	i	/	0.92
CC1CCN(C(=O)Nc2cccc(NC(=O)N3CCC(C)CC3)c2)CC1	-1	98	-1.5	/	i	/	0.8
CN1CCN(C(=O)C2CCN(c3ncc(C(F)(F)F)cc3Cl)CC2)CC1	-1	102	/	/	i	/	1
Cc1ccc2c(c1)c1c(n2CC(O)Cn2nc(C)c(Br)c2C)CCCC1 (stereo not given)	1	-56	0.0	102	i	-83	0.89
O=[N+]([O-])c1ccccc1Oc1ncccc1[N+](=O)[O-]	0	105	/	44	i	-75	1.1
CC(C)Cn1c(SCC(=O)N2CCCCC2)nc2ccccc2c1=O	-7	75	-0.3	76	i	-269	1.1
CCOC(=O)C1=C(C)NC(=S)NC1c1ccc(OC(=O)c2ccco2)cc1 (stereo not given)	-2	55	-0.9	75	i	-3	1
NS(=O)(=O)c1ccc(NC(=O)CN2C(=O)c3ccccc3C2=O)cc1	/	100	/	/	i	/	1
CC1=C(C(=O)N2CCOCC2)C(c2ccc(OC(F)F)cc2)NC(=S)N1c1ccccc1 (stereo not given)	3	103	/	99	i	37	1.1
COC(=O)c1ccc(NC(C)C(=O)OC)c([N+](=O)[O-])c1 (stereo not given)	-3	99	0.3	164	i	23	0.92
CN1CCN(CC(=O)N/N=C\c2c[nH]c3ccccc23)CC1	4	101	-1.1	88	i	-14	1.1
Cn1c(=O)c2cc(NC(=O)c3ccccc3Cl)c(=O)oc2n(C)c1=O	-6	107	-0.5	118	i	26	0.94

Single records, as listed above. Order of screens: PKD1 inh	RGS16-Gao	GALR2 ag	Insulin prom inh cell count	HSV replic up	Insulin prom inh	HSV replic up primary fold
Profile of CCCCN(CCCC)c1cn[nH]c(=O)c1Cl : -9	9.8*	-2.4	88	i	33	1
Profile of Cc1ccc(C(=O)Nc2sc3c(c2C(=O)O)CCCCC3)o1 : -1	108	0.8	59	i	-15	0.94
Profile of O=C1NC(c2ccc(Cl)cc2)=COc2ccccc21 : -5	98	/	/	i	/	0.87
Profile of CCOC(=O)C1=C(C)N=C2SCCC(=O)N2C1c1cc(Br)ccc1OC (stereo not given) : -15	/	-1.1	119	i	0	1
Profile of C/C(CC(=O)Nc1ccc(N(C)C)cc1)=N\NC(=O)c1ccccn1 : -3	100	-0.7	126	i	25	0.89

More compounds:
Structure	PKD1 inh	RGS16-Gao	GALR2 ag	Insulin prom inh cell count	HSV replic up	Insulin prom inh	HSV replic up primary fold
CCOC(=O)C1=NOC(CNc2ncc(C(F)(F)F)cc2Cl)C1 (stereo not given)	-2	93	/	136	i	-29	0.92
CCNC(=O)NC(=O)COC(=O)C1CSC2(C)CCC(=O)N12 (stereo not given)	-1	105	/	/	i	/	1.1
CC(=O)c1cccc(NC(=O)N2CCCC2C(=O)Nc2ccc3c(c2)OCCO3)c1 (stereo not given)	-5	97	/	73	i	-493	1.1
CC(C)COc1ccc(C(=O)OCCN2CCOCC2)cc1	-7	103	-0.1	67	i	-300	0.96
